# Sfp inh: inhibitors of Bacillus subtilis Sfp phosphopantetheinyl transferase. Q9F4F7. Biochemical Sfp PPTase activity, qHTS. Potency, µM, for the others: max response, negative = inhibition, usual class: inhibitors. actives 3.5% (n = 310,000); active = well fitted inhibition curve with a large enough effect; inconclusive = small, poorly fitted or top-dose-only effect, or another doubt; inactive = no such curve, though single readings can be large or run the other way;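 note: the enzyme is Sfp with the accession as filed and its product quenches rhodamine fluorescence; potency is the fitted concentration of half-maximal effect; 0% = enzyme reaction without inhibitor and -100% = no enzyme wells; top concentration of the series not given in the record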
#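 Sfp 15 nM + cpd, 15 min RT; start w/ rhodamine-CoA 5 uM, BHQ-2-YbbR 12.5 uM (final); 50 mM Hepes pH 7.6, 10 mM MgCl2, 0.01% NP-40, 0.01% BSA; read 525/598 nm at 0 and 30 min.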
# TRPML1 ag: human mucolipin-1 channel agonism. actives 0.12% (n = 410,000). TRPML1-expressing cells, Ca2+ dye fluorescence, FDSS; host cell line not named in the record; reference of the full effect not given here. AID 624414. activation, % (no concentration beside the values). Q9GZU1; in the data active = activation above about 50%; inconclusive = about 30% to 50%; inactive = below about 30%; note: 0% is about no effect; the text of the record puts the active cut at 80%
# Target sequence (Q9GZU1 whole entry, looked up): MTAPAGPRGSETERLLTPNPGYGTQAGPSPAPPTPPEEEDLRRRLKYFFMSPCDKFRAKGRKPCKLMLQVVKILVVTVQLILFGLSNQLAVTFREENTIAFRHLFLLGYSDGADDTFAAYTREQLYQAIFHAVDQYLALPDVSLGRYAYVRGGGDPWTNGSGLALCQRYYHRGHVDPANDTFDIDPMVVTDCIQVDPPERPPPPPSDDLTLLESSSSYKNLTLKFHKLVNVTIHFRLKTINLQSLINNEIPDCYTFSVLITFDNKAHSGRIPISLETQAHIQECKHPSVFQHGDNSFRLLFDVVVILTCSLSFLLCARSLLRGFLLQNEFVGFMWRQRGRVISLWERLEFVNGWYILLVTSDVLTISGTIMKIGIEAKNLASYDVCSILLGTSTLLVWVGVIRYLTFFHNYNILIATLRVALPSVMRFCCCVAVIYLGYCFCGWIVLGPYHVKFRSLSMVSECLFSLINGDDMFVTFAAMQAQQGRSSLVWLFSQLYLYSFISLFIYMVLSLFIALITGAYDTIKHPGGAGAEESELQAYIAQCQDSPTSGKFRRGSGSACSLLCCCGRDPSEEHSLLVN
#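 Agonist activity was taken from a 110 s kinetic Ca2+ dye read on the FDSS after pinning compounds onto TRPML1-DL cells. The cells were seeded at 1,500/well with Tet inducer, incubated about 16 h, then dye-loaded at room temperature.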
# TRPV1 PAM: human TRPV1 potentiation | Q8NER1 | TRPV1-expressing cells, Fluo-8 calcium influx, capsaicin EC20 potentiation; host cell line not named in the record; control for the full effect not named in the record | potentiation, % at 8.33 µM | actives 0.02% (n = 320,000) | AID 540277; active means potentiation above 80%; inconclusive means 30% to 80%; inactive means below 30%; note: 0% is about no effect
#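 Fluo-8 calcium influx in TRPV1-expressing cells, kinetic read (ex 480/em 520 nm). Compound added and read 3 min for agonist activity, followed by capsaicin at EC20 final and 2 min further read for enhancement.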
# Menin MLL FP FL: displaces fluorescein MLL peptide from human menin. AID 1766. Fluorescence polarization, fluorescein-MLL peptide displacement from menin. FP activity change, % at 61.4 µM. 290,000 tested, under 10 active; inconclusive = falling polarisation curve, or a change in total fluorescence; inactive = total fluorescence flat and polarisation flat or rising; no compound was filed as active; the % refers to the polarisation; negative = inhibition;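 note: % of control where 0% means no effect; inhibitors lower the polarisation; unlabelled MLL peptide was the positive control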
# PINK1 modulator: PINK1 expression modulation | PINK1 immunofluorescence, high-content cytometry, 24 h | Potency, µM (series often up to 76.6 µM), for the others: at the highest dose activation (PINK1 increase), hits mostly activators | actives 0.2% (n = 410,000); active = well fitted activation curve with a large enough effect; inconclusive = small, poorly fitted or top-dose-only effect; inactive = flat fitted curve, though single readings scatter; cell line not stated here;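 note: potency is the fitted concentration of half-maximal effect; % of control where 0% means no effect; nearly all actives have a fitted effect of over 65% in size; a mitochondrial uncoupler was the plate control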
#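 Decision-based qHTS: stable cells, 24 h exposure to five compound concentrations, CCCP as control. Fixed cells stained for PINK1 plus nuclear, mitochondrial and cell markers, cytometer read.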
# ClpP mod: qHTS Assay for Activators of ClpP. ATP-dependent Clp protease proteolytic subunit (Bacillus subtilis (strain 168)), P80244. purified B. subtilis ClpP, FRET peptide cleavage, 20 min. Potency, µM (doses to about 57.5 µM), for the others: at the top dose activity change, negative = active. actives 1.9% (n = 340,000); active = well fitted falling curve with a large enough effect; inconclusive = small, poorly fitted or top-dose-only effect; inactive = no such curve, though single readings can be large or run the other way; note: potency is the fitted concentration of half-maximal effect; the source files actives as falling curves though it sought activators and does not explain the sign; nearly all actives have a fitted effect of over 65% in size; many hits overshoot -100%
# Target sequence (P80244 whole entry, looked up): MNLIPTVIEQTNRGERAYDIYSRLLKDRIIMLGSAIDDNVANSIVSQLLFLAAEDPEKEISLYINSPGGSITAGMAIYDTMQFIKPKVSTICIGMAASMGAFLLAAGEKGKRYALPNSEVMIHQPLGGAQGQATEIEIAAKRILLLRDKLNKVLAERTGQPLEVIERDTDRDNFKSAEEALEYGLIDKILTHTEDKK
#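 FRET quenching reversal measured ClpP activation: 10 microg/mL B. subtilis ClpP at pH 8 with the FRET-FV decapeptide, read at 430 nm after 320 nm excitation. The 20-min minus 0-min signal was scaled between DMSO/no-enzyme wells and ADEP (5.8 microM final).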
# TRPML1 inh: blocks the human TRPML1 channel; Q9GZU1; activity change, negative = inhibition, % (test concentration not listed); actives 0.02% (n = 390,000); TRPML1-inducible cells, Ca2+ dye fluorescence, FDSS; hits give low values; inhibition of EC80 agonist-evoked calcium signal; AID 624415; in the data active means activity change below about -50%; inconclusive means about -30% to -50%; inactive means above about -30%;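 note: stimulus is agonist 54-4 at its EC80 concentration; % is set by controls: 0 for no effect and ±100 for the full control effect; compound concentration not given in the record; the text of the record puts the active cut at -80%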
#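 Calcium fluorescence in TRPML1-DL cells induced overnight with Tet: a 110 s read after compound pin addition, then a 110 s antagonist read after challenge with 54-4 at 4 uM final (EC80).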
# An asterisk follows results filed as active; ? = inconclusive; · = no result given; & = joins results of further samples; [ ] = another dose, or the depositor's remark.
molecule	Sfp inh	TRPML1 ag	TRPV1 PAM	Menin MLL FP FL	PINK1 modulator	ClpP mod	TRPML1 inh
CCOC(=O)N1CCN(C(=O)CNC2CCCCCCC2)CC1	-22%	-0.6	7	0.5	0.3%	1.5%	2
CCOC(=O)c1cc(-c2cccc([N+](=O)[O-])c2)nc2[nH]c(=O)[nH]c(=O)c12	8%	-0.2	-10	4.5	4.5%	-0.9%	26
O=C(Nc1cccc(-c2nc3cc(Cl)ccc3o2)c1)c1ccc(F)cc1	·	0.7	·	·	0.1%	-18%	9
Cc1ccc(N2C(=O)C(Cl)=C(N3CCOCC3)C2=O)c(C)c1	-15%	-0.7	17	-3.7	2.1%	0.0%	0
COc1cccc(C2CC(=O)Nc3c2c(=O)n(C)c(=O)n3C)c1OC (configuration not stated)	11%	0.1	3	2.6	1.2%	-1.6%	-27
O=C(O)c1ccc(CSc2nnc(-c3ccncc3)n2-c2ccc(Cl)cc2)cc1	28%	0.7	8	1.6	0.2%	-5.2%	-5
O=C(CN1CCN(S(=O)(=O)c2cc(Cl)ccc2Cl)CC1)c1ccc(O)c(O)c1	50µM*	-0.1	-7	·	2.9%	-4.3%	21
COC(=O)CCNC(=O)NC(CCC(C)C)c1c(-n2cccc2)sc2c1CCN(C)C2 (configuration not stated)	·	1.2	·	·	4.8%	4.6%	-27
CC(=O)C1=C(C)Nc2ncnn2C1c1ccc(Br)cc1 (configuration not stated)	5%	1.5	22	-0.4	0.8%	-1.5%	8
N#Cc1ccc(S(=O)(=O)NC2CCCCNC2=O)cc1 (configuration not stated)	8%	-0.8	?	-1.5	2.3%	0.3%	0

# The list continues:
molecule	Sfp inh	TRPML1 ag	TRPV1 PAM	Menin MLL FP FL	PINK1 modulator	ClpP mod	TRPML1 inh
O=C(CSCCO)Nc1cc(C(F)(F)F)ccc1Cl	4%	0.1	8	1.3	-0.5%[38.3 µM]	-1.2%	1
CCOCCOC(=O)c1[nH]c2c(c1C)C(=O)CC(c1ccccc1)C2 (configuration not stated)	12%	0.9	6	-2.4	1.1%	·	0
CCc1ccccc1Nc1nc2ccccc2n1CC	22%	-0.6	10	-3.0	22%	·	9
Cc1cc(=O)[nH]c(SCC(=O)Nc2ccc3c(c2)OCCO3)n1	16%	0.6	6	-5.8	0.2%	·	16
CSCC(C)N1CCC(n2nccc2NC(=O)c2ccccc2C)CC1 (configuration not stated)	-1%	-0.3	0	·	-1.4%	-0.9%	24
CC12CCC(C(=O)OC3CCCCC3)(OC1=O)C2(C)C (configuration not stated)	12%	0.3	-9	0.8	0.3%	2.2%	13
O=C(NCCc1ccccc1)C1CCN(S(=O)(=O)N2CCOCC2)CC1	6%	0.4	3	·	-0.1%	0.4%	-18
CCC1CC=CC2C1C(=O)N(Cc1ccccc1)C2c1ccc2ccccc2c1 (configuration not stated)	2%	2.9	·	-0.3	·	·	71
CCc1nc2c(OCC3COc4ccccc4O3)cccn2c1N(C)C(=O)c1ccc(OC)cc1 (configuration not stated)	·	-0.8	·	·	2.2%	0.2%	·
COc1cccc(C(=O)NNC(=O)c2cccc(F)c2)c1	22%	-0.4	-6	-1.1	-2.1%	0.0%	0

# Further records follow.
molecule	Sfp inh	TRPML1 ag	TRPV1 PAM	Menin MLL FP FL	PINK1 modulator	ClpP mod	TRPML1 inh
CCOc1ccc(N2C(=O)/C(=C\c3ccccc3OC)S(=O)(=O)C2c2cccc([N+](=O)[O-])c2)cc1 (configuration not stated)	13%	-0.1	-1	-1.0	18%	-2.7%	-5
Cc1cc(OCC(=O)Nc2ccccc2N2CCCCC2)ccc1C(C)C	·	-0.5	-5	·	?	-27%	-15
COc1ccc(C(c2nnnn2C2CCCCC2)N2CCN(c3ccc(OC)cc3)CC2)cc1 (configuration not stated)	3%	1.5	-8	2.8	-1.3%	-5.3%	7
CCCOC(=O)C1=C(C)NC(=O)NC1c1cc2c(cc1Br)OCO2 (configuration not stated)	17%	-0.1	-4	-1.5	0.5%	1.1%	1
CCC(C)NS(=O)(=O)c1ccc(NC(=O)Cc2ccc(OC)cc2)cc1 (configuration not stated)	6%	2.6	8	0.8	-0.9%	·	-4
O=C(CNC(=O)c1cccs1)Nc1ncccc1O	·	0.4	2	·	0.5%	·	-14
Cc1ccc(S(=O)(=O)NNC(=O)c2sccc2-n2cccc2)cc1	17%	-0.7	19	4.2	1.0%	0.9%	1
Oc1ccc(C2=CSC3=NCCN23)cc1O	89µM*	1.3	-3	-3.0	0.7%	-0.3%	23
C=CCn1c(SCC(=O)Nc2ccc(NC(=O)c3ccco3)c(OC)c2)nnc1-c1ccncc1	-2%	0.2	-28	1.5	3.3%	-0.3%	-4
O=C(COc1ccc(Cl)cc1)NCc1nnc(SCC(=O)NCc2ccc3c(c2)OCO3)o1	8%	-0.7	5	-1.4	-1.4%	-0.1%	-24

# The listing continues.
molecule	Sfp inh	TRPML1 ag	TRPV1 PAM	Menin MLL FP FL	PINK1 modulator	ClpP mod	TRPML1 inh
Cc1cccc2cc(CN(CCc3ccccc3)C(=O)N3CCOCC3)c3nnnn3c12	14%	3.5	-11	3.2	5.1%	-2.7%	-20
O=C(COC(=O)c1cnc(Cl)c(Cl)c1)Nc1cccc(S(=O)(=O)N2CCOCC2)c1	·	-0.2	·	·	-0.7%	-2.4%	12
Cn1cnc([N+](=O)[O-])c1S(=O)(=O)Nc1ccccc1	·	-0.4	·	·	1.2%	·	7
COc1ccc(NC(=O)CN2c3cccc4cccc(c34)S2(=O)=O)cc1OC	·	-0.4	·	·	-0.3%	-14%	-9
CCc1nnc(NC(=O)CSc2nnc(-c3ccncc3)n2Cc2ccccc2)s1	-2%	·	13	-0.6	·	·	·
COc1ccc(OC)c(-c2cc(C(=O)NCCCn3ccnc3)no2)c1	14%	1.9	13	-0.7	-13%[38.3 µM]	-6.6%	18
CCOC(=O)C1C(C(C)=O)=C(c2ccccc2)c2ccccc2N1S(=O)(=O)C(F)(F)F (configuration not stated)	-5%	0.6	·	3.3	1.2%	-1.5%	-3
CC1(C)C(=O)OC(c2cccs2)C2(CCCCC2)C1=O (configuration not stated)	20%	3.9	-10	0.0	-3.3%	0.0%	6
CNC(=O)CN(CCc1ccccc1)S(=O)(=O)c1ccc(OC)cc1	-4%	0.8	11	-4.3	-1.2%	-0.7%	-10
Cn1nnnc1SCc1ccc(F)cc1	-1%	0.3	-8	-1.3	-2.8%	-1.5%	20

# (listing goes on)
molecule	Sfp inh	TRPML1 ag	TRPV1 PAM	Menin MLL FP FL	PINK1 modulator	ClpP mod	TRPML1 inh
C/C(N)=C(/C#N)C(=O)CSc1nc2ccccc2c(=O)n1-c1ccc(C)c(Cl)c1	7%	-0.9	-1	11	9.9%	0.7%	-13
CCOC(=O)C1C(c2cccc(Cl)c2Cl)NC(=O)NC1(O)C(F)(F)F (configuration not stated)	9%	-0.6	-9	1.2	3.5%[38.3 µM]	0.6%	-8
O=C(O)CSc1ccc2nnc(-c3cccnc3)n2n1	5%	-0.1&1.3	-4	1.9	2.6%&2.6%	?	15
C#CCNC(=O)C1=C[C@@H](c2ccc(C(F)(F)F)cc2)C[C@@H](OCCCCO)O1	1%	1.6	-16	2.6	0.7%	-5.4%	4
CCn1c(CC(=O)Nc2ccccc2)nnc1SCC(=O)NC1=NCCS1	9%	8.9	9	5.5	0.1%	·	-5
Cc1ccc(S(=O)(=O)N2CCN(C)CC2)c(C)c1N(C)S(=O)(=O)c1ccc(Cl)cc1	-6%	0.3	3	1.4	-1.5%	-2.7%	14
Cc1cc(C)n(-c2ccc(NC(=O)C3CCN(Cc4ccc(C)o4)CC3)cc2)n1	7%	0.5	-5	·	2.1%	-1.5%	7
O=C(NN=C1CCCC1)c1cc(-c2ccccc2)n[nH]1	7%	0.9	4	-1.7	0.3%	-2.6%	2
Cc1ccc(C(=O)NCC2CCCO2)o1 (configuration not stated)	6%	-0.4	14	-7.1	-1.1%	0.9%	1
Cc1cc(C)n2c(SCC(=O)Nc3cccc(S(N)(=O)=O)c3)nnc2n1	·	0.3	·	·	1.3%	·	5

# Further records follow.
molecule	Sfp inh	TRPML1 ag	TRPV1 PAM	Menin MLL FP FL	PINK1 modulator	ClpP mod	TRPML1 inh
CCC(C)C(N)C(=O)NC(CCC(=O)OCc1ccccc1)C(N)=O (configuration not stated)	3%	-0.3	-3	1.6	1.2%	1.3%	18
Cc1ccc(NC(=O)CCC(=O)OCC(F)(F)C(F)F)cc1	18%	1.9	?	3.1	0.4%	-1.2%	8
CC(C)n1c(O)c(N=NC(=O)c2ccccc2NS(=O)(=O)c2cccs2)c2ccccc21	7%	1.0	12	3.9	-0.4%	0.9%	-3
CCCc1nc2oc3c(Cl)ncnc3c2c2c1CCCC2	-6%	0.5	21	0.3	-1.7%	·	-8
COc1ccc(CNC(=O)C2CC(C)=C(C)CC2C(=O)O)cc1 (configuration not stated)	5%	1.5	23	2.9	18%[38.3 µM]	-2.1%	-10
CC1CCN(C(=O)c2cc(F)c(F)cc2Cl)CC1	16%	-0.8	9	-1.0	-1.0%	-0.3%	1
O=C(CCn1nc(-c2ccccc2)ccc1=O)N1CCOCC1	30%	0.5	-3	4.6	8.5%	-21%	-1
Cc1ccc(NC(=O)CSc2nc3ccccc3c3nc(CCn4cncc4C)nn23)cc1F	·	0.5	·	·	4.6%	1.4%	-5
CC(C)C(O)C1CCN(Cc2nc(-c3cccs3)no2)CC1 (configuration not stated)	13%	0.6	-14	-0.5	-1.5%	·	12

# 5 compounds from above, arranged by heavy-atom count, high to low.
molecule	Sfp inh	TRPML1 ag	TRPV1 PAM	Menin MLL FP FL	PINK1 modulator	ClpP mod	TRPML1 inh
Cc1ccc(NC(=O)CSc2nc3ccccc3c3nc(CCn4cncc4C)nn23)cc1F	·	0.5	·	·	4.6%	1.4%	-5
CC(C)n1c(O)c(N=NC(=O)c2ccccc2NS(=O)(=O)c2cccs2)c2ccccc21	7%	1.0	12	3.9	-0.4%	0.9%	-3
CCC(C)C(N)C(=O)NC(CCC(=O)OCc1ccccc1)C(N)=O (configuration not stated)	3%	-0.3	-3	1.6	1.2%	1.3%	18
O=C(CCn1nc(-c2ccccc2)ccc1=O)N1CCOCC1	30%	0.5	-3	4.6	8.5%	-21%	-1
Cc1ccc(NC(=O)CCC(=O)OCC(F)(F)C(F)F)cc1	18%	1.9	?	3.1	0.4%	-1.2%	8

# Screening data (PubChem BioAssay)

# Hits appear at their usual frequency. About 4.4% of those tested had a hit in this group.
